CtBP-E1A inh – inhibitors of CtBP/E1A interaction | AlphaScreen GST-E1A/His-CtBP binding, 1536-well; hits give low values; control for the full effect not named in the record | 340,000 tested, 0.49% active | AID 651724 | activity change, % (no concentration beside the values); in the data active means activity change below about -65%; inconclusive means about -30% to -65%; inactive means above about -30%; also: % is scaled to controls: 0 for no effect and ±100 for the full control effect; compound concentration not given in the record
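AlphaScreen with 125 nM GST-E1A and 125 nM His-CtBP (5X stocks) in Tris pH 8.0, 300 mM NaCl, BSA, Tween 20, TCEP. Compounds preincubated 2 h at 37 deg C, then glutathione donor/nickel acceptor beads added for 1 h at 37 deg C in dark.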
gsp antag – gsp mutant antagonism | gsp-mutant cells, cAMP HTRF, 30 min; control for the full effect not named in the record | Potency, µM (top dose mostly 76.9 µM), for inactives: at the top dose activity change, negative = inhibition, usual class: inhibitors | 340,000 tested, 0.4% active | AID 624288; active = falling curve of any shape with a large fitted effect; inconclusive = falling curve, mostly with a smaller effect; inactive = flat or rising curve; cell line not stated here;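 also: intracellular cAMP measured with PDE inhibitor Ro 20-1724 present during compound exposure; potency is read from the fitted curve at half-maximal effect; % is scaled to controls: 0 for no effect and ±100 for the full control effect; nearly all actives have a fitted effect of over 65% in size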
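Cells in G418 medium, seeded 16-24 h, 37C; buffer exchange to DPBS + 1 mM CaCl2, 0.5 mM MgCl2, 0.05% BSA; cpds in DMSO + […] (300 uM stock), 30 min 37C; HTRF cAMP detection.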
Sfp PPTase inh – Sfp phosphopantetheinyl transferase inhibition; Q9F4F7; Biochemical Sfp PPTase activity, qHTS; 310,000 tested, 3.5% active; AID 1490; Potency, µM, for the others: max response, negative = inhibition, most hits filed as inhibitors; active = well fitted inhibition curve with a large enough effect; inconclusive = small, poorly fitted or top-dose-only effect, or another doubt; inactive = no such curve, though single readings can be large or run the other way;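 also: the enzyme is Sfp with the accession as filed and its product quenches rhodamine fluorescence; potency is read from the fitted curve at half-maximal effect; 0% = enzyme reaction without inhibitor and -100% = no enzyme wells; top concentration of the series not given in the record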
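Fluorescence-quenching assay: 15 nM Sfp-PPTase preincubated 15 min at room temperature with compound, then 5 uM rhodamine-CoA and 12.5 uM BHQ-2-labelled YbbR peptide added. Fluorescence (ex 525/em 598 nm) read at start and after 30 min; difference gives rate.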
Menin MLL FP FL – displaces fluorescein MLL peptide from human menin; Fluorescence polarization, fluorescein-MLL peptide displacement from menin; FP activity change, % at 61.4 µM; 290,000 tested, under 10 active; inconclusive = falling polarisation curve, or a change in total fluorescence; inactive = total fluorescence flat and polarisation flat or rising; no compound was filed as active; the % refers to the polarisation; negative = inhibition;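 also: % of control where 0% means no effect; inhibitors lower the polarisation; unlabelled MLL peptide was the positive control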
ClpP mod – qHTS Assay for Activators of ClpP; 340,000 tested, 1.9% active; Potency, µM (series often up to 57.5 µM), for the others: at the top dose activity change, negative = active; purified B. subtilis ClpP, FRET peptide cleavage, 20 min; AID 651965, 2013; active = well fitted falling curve with a large enough effect; inconclusive = small, poorly fitted or top-dose-only effect; inactive = no such curve, though single readings can be large or run the other way; also: potency is read from the fitted curve at half-maximal effect; the source files actives as falling curves though it sought activators and does not explain the sign; nearly all actives have a fitted effect of over 65% in size; many hits overshoot -100%
Target sequence (P80244 whole entry, looked up): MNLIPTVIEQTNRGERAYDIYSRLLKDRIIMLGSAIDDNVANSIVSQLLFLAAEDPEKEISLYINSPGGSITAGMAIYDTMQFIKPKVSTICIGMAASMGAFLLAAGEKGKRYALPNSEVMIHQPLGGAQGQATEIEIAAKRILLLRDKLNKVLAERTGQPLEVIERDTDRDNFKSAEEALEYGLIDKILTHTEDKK
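Buffer: 100 mM Tris/HCl pH8, 100 mM KCl, 0.05% low protease BSA, 2.5% glycerol, 0.01% Tween-20. ClpP 10 microg/mL final; 20 min RT; delta FRET normalized to ADEP and DMSO controls.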
TRPV1 PAM – human TRPV1 potentiation. 320,000 tested, 0.02% active. potentiation, % at 8.33 µM. TRPV1-expressing cells, Fluo-8 calcium influx, capsaicin EC20 potentiation; host cell line not named in the record; control for the full effect not named in the record. Q8NER1; active means potentiation above 80%; inconclusive means 30% to 80%; inactive means below 30%; also: 0% is about no effect
Target sequence (Q8NER1 whole entry, looked up): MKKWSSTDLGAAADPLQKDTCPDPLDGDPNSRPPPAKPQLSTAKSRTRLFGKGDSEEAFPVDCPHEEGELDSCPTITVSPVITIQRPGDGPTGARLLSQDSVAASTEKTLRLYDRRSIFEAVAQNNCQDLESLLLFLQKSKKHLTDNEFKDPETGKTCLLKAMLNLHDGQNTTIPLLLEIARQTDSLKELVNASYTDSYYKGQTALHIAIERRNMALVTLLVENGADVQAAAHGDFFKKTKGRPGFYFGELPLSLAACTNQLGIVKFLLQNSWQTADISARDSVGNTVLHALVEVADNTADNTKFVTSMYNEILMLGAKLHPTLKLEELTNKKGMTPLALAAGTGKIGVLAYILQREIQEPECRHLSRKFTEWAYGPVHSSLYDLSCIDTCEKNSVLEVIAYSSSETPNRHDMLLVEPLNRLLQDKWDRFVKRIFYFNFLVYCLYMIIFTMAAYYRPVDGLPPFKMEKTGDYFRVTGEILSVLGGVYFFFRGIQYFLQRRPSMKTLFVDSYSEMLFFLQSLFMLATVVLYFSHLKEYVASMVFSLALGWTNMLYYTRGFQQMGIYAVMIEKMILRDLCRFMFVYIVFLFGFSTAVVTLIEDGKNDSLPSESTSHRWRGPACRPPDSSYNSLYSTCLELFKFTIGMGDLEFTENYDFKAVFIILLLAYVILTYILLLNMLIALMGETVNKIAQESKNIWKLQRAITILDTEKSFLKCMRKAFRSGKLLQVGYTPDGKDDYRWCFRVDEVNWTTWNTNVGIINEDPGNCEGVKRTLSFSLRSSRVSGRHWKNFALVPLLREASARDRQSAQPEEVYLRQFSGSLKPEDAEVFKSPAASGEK
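TRPV1-expressing cells were cultured overnight at 35.5C and loaded with Fluo-8 calcium dye for 40 to 90 min at room temperature. After a 10 s baseline, compound was added and calcium influx was read kinetically for 3 min (ex 480/em 520 nm).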
gsp agonist – gsp mutant agonism; gsp mutant cells, cAMP HTRF, 30 min; control for the full effect not named in the record; Potency, µM (doses to about 76.9 µM), inactives show at the top dose activation (cAMP increase), hits mostly activators; 340,000 tested, 0.13% active; AID 624287; active = well fitted activation curve with a large enough effect; inconclusive = small, poorly fitted or top-dose-only effect, or another doubt; inactive = no such curve, though single readings can be large or run the other way; cell line not stated here;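 also: phosphodiesterase inhibitor Ro 20-1724 added with compounds to block cAMP breakdown; potency is read from the fitted curve at half-maximal effect; nearly all actives have a fitted effect of over 60% in size; about a fifth of the inactives were tested at one dose only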
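Cells stably selected in G418 were plated at 2000/well, grown 16-24 hr, then given compounds in DMSO with the PDE inhibitor […] (300 uM solution added) for 30 min at 37C; cAMP was read by HTRF.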
Numbers without * were called inactive; ? = inconclusive; . = not tested or not shown; [ ] = another dose, or the depositor's remark.

SMILES	CtBP-E1A inh	gsp antag	Sfp PPTase inh	Menin MLL FP FL	ClpP mod	TRPV1 PAM	gsp agonist
CN(c1ccccc1)S(=O)(=O)c1cccc(Cl)c1Cl	6	-4%	17%	7.2	-1.1%	16	8%
Cc1ccc(/C=C/C(=O)O)cc1S(=O)(=O)NCc1cccnc1	-6	2%	7%	2.8	-1.8%	-15	-9%
COc1ccc(C(=O)Cn2c(Cl)nc3c2c(=O)n(C)c(=O)n3C)cc1	0	-16%	13µM*	-0.7	.	-1	0%[15.4 µM]
CCOC(=O)N1CCC(NC(=O)CCCN2C(=O)CSc3ncccc32)CC1	6	5%	9%	1.3	-1.0%	0	6%
C=CC[C@H](CC(=O)NCCO)C(=O)N[C@@H](C)COC(=O)[C@H](CC=C)CC(=O)OC(C)(C)C	6	5%	.	.	-1.9%	.	.
COc1ccccc1CC(=O)NCc1csc(-c2cccs2)n1	3	2%	12%	1.7	.	14	0%[15.4 µM]
CC(C)=C1C2C=CC1C(C(=O)Nc1cc(C)ccc1C)C2C(=O)O (centres undefined)	-10	7%	15%	3.4	-2.2%	4	-29%
O=C1c2ccccc2NC(c2ccccn2)N1NS(=O)(=O)c1ccccc1 (centres undefined)	-16	6%	10%	3.3	.	6	-24%
COc1cccc(Sc2ccccc2CN(C)C)c1	-8	2%	10%	-1.2	-2.2%	6	9%
COc1ccc(OCCn2cc(/C=N/NC(=O)c3ccncc3)c3ccccc32)cc1	-13	8%	-13%	8.7	-2.0%	17	-41%[inhibitor]
CC1CCCN1c1ccnc2cc(Cl)ccc12 (centres undefined)	-2	-18%	.	.	.	.	7%
Cc1cc(NC(=O)c2ccc(N(C)S(=O)(=O)c3ccccc3)cc2)no1	0	?	11%	0.3	1.8%	11	0%
CCN(C(=O)COC(=O)CCC(=O)c1ccccc1)c1c(N)n(Cc2ccccc2)c(=O)[nH]c1=O	3	21%	.	.	2.0%	-6	?
CC(C)CC(c1nnnn1Cc1ccco1)N1CCN(c2cccc(Cl)c2)CC1 (centres undefined)	-1	-6%	1%	1.2	-1.4%	24	?
COc1ccccc1N1CCN(C(=O)C(Cc2ccccc2)NC(=O)C2CCCCC2)CC1 (centres undefined)	-4	?	11%	-1.8	-0.3%	-9	-9%
O=C(Cn1cc(C(F)(F)F)ccc1=O)N/N=C/c1ccc(Cl)cc1	0	-11%	2%	-5.7	.	6	-11%[15.4 µM]
COc1cc(S(=O)(=O)N(Cc2ccccn2)Cc2ccco2)ccc1-n1cnnn1	7	-24%	-5%	2.5	0.0%	2	-68%[inhibitor]
Cc1cc(C)c2c(c1)/C(=C/C(=O)c1ccc(Br)s1)C(=O)N2	-1	6%	2%	-4.9	-1.7%	-6	7%
Cc1ccc(NC(=O)CCNS(=O)(=O)c2ccc3[nH]c(=O)oc3c2)c(Cl)c1	1	8%	9%	-2.2	.	-2	0%
O=C(CCc1nc2ccccc2c(=O)[nH]1)Nc1ccc(F)c([N+](=O)[O-])c1	-2	-4%	-23%	?	-0.1%	-3	64%[15.4 µM]
O=C(NCc1ccc2c(c1)OCO2)Nc1ccc([N+](=O)[O-])cc1	7	-10%	10%	-1.9	0.7%	-19	?
COc1ccc(C(=O)NCCS(=O)(=O)N2CCN(C(=O)c3ccco3)CC2)cc1	-13	11%	.	.	.	16	-34%[15.4 µM]
CCOC(=O)CCc1c(C)nc2ncnn2c1C	0	10%	10%	7.1	-1.5%	1	?
CC(C)c1ccc(NC(=O)CSC(C)c2nc3ccccc3c(=O)[nH]2)cc1 (centres undefined)	-1	-12%	16%	8.6	.	-9	-7%[15.4 µM]
Cc1ccccc1OCCn1cc(C(=S)N2CCN(C)CC2)c2ccccc21	-1	-15%	5%	1.4	-1.4%	-7	-25%
CCOC(=O)c1[nH]cnc1C(=O)N[C@@H](C)c1ccccc1	-6	12%	.	.	0.5%	9	?
CCN(CC)CC(=O)NCc1cc(-c2ccc(OC)cc2)no1	-8	4%	13%	-0.3	-1.6%	-13	-17%
O=C(NCC1CC1)c1onc(CSc2nc3ccccc3[nH]2)c1C(=O)NCC1CC1	-8	-13%	6%	4.4	-1.4%	21	12%
COc1ccc2[nH]cc(C(=O)CNc3nc(C)cs3)c2c1	-10	-7%	-8%	1.8	-22%	2	-17%
CCC(Oc1ccccc1)C(=O)NCCCN1CCOCC1 (centres undefined)	6	-12%	1%	-3.2	0.5%	-13	20%
O=C(CSc1nnc(CNC(=O)c2cccs2)o1)NC1CCCC1	3	-6%	2%	0.1	-0.9%	3	8%
Cc1ccc(NC(=S)N(CCCN2CCN(C)CC2)Cc2cccs2)cc1C	-18	-18%	2%	-4.0	0.6%	-5	8%[15.4 µM]
O=S(=O)(Cc1ccccc1)NCCc1ccc(F)cc1	1	12%	21%	-0.4	1.0%	-3	5%[15.4 µM]
Cc1ccc(C(NC(=O)C(C)C)c2cc([N+](=O)[O-])c3cccnc3c2O)cc1 (centres undefined)	-96*	-1%	-17%	4.2	0.7%	8	2%
Cc1ccc(NC(=O)Cn2c(=O)oc3cc(S(=O)(=O)N4CCC(C)CC4)ccc32)cc1C	-3	-29%	21%	-0.9	0.5%	-9	-33%[inhibitor]
COc1ccc(CN2CCNC(=O)C2CC(=O)N(C)Cc2cc(C)no2)cc1OC (centres undefined)	10	18%	10%	.	-2.1%	-3	-1%
CC(=O)c1c(C)nc(-c2ccccc2)n1O	-3	0%	-13%	-1.3	-3.6%	-5	6%
COc1ccnc(Oc2ccccc2)c1C(=O)N/C=N/OCc1ccccc1	-1	-8%	11%	-1.5	.	1	-40%[inhibitor]
COc1ccc(S(=O)(=O)NCC2CCCN(C(=O)c3sccc3C)C2)cc1 (centres undefined)	.	3%	9%	-0.3	-1.6%	5	2%
CCN(C[C@H]1N[C@@](C)(C(=O)OC)[C@H]2C(=O)N(C)C(=O)[C@@H]12)S(=O)(=O)c1ccccc1	1	9%	.	.	-4.3%	.	.

Profiles, quoted from the list.
`Cc1ccc(NC(=O)Cn2c(=O)oc3cc(S(=O)(=O)N4CCC(C)CC4)ccc32)cc1C` in the list: CtBP-E1A inh: -3; gsp antag: -29%; Sfp PPTase inh: 21%; Menin MLL FP FL: -0.9; ClpP mod: 0.5%; TRPV1 PAM: -9; gsp agonist: -33%[inhibitor]
`Cc1ccc(C(NC(=O)C(C)C)c2cc([N+](=O)[O-])c3cccnc3c2O)cc1` (centres undefined) in the list: CtBP-E1A inh: -96*; gsp antag: -1%; Sfp PPTase inh: -17%; Menin MLL FP FL: 4.2; ClpP mod: 0.7%; TRPV1 PAM: 8; gsp agonist: 2%
`Cc1ccc(NC(=S)N(CCCN2CCN(C)CC2)Cc2cccs2)cc1C` in the list: CtBP-E1A inh: -18; gsp antag: -18%; Sfp PPTase inh: 2%; Menin MLL FP FL: -4.0; ClpP mod: 0.6%; TRPV1 PAM: -5; gsp agonist: 8%[15.4 µM]

Other structures.
SMILES	CtBP-E1A inh	gsp antag	Sfp PPTase inh	Menin MLL FP FL	ClpP mod	TRPV1 PAM	gsp agonist
CN(C)N=Nc1nc2c(c(=O)n(C)c(=O)n2C)n1C	-1	4%	14%	-0.1	-23%	17	11%[15.4 µM]
CCC1CCCCN1C(=O)CNCC1CCCO1 (centres undefined)	7	7%	1%	-11	-0.3%	9	8%
COc1ccccc1N(CC(=O)NCc1ccccc1)C(=O)CCC(=O)Nc1cc(C)ccn1	6	2%	-7%	7.9	-0.2%	4	-75%[inhibitor]
Cc1cc(S(=O)(=O)Nc2ccc(C(=O)NCC3(N(C)C)CCCCC3)cc2)ccc1F	-7	14%	.	.	-1.1%	?	-13%
CCOC(=O)C1(Cc2cccc(Cl)c2)CCCN(C(=O)CCC(=O)N(C)C)C1 (centres undefined)	.	1%	9%	0.9	-2.3%	-7	-26%
O=C(NC1CC1)C1=C[C@H](C2CCCCC2)C[C@H](OCc2ccc(CO)cc2)O1	-2	-11%	?	-1.0	-1.3%	9	-15%
Cc1ccc(NC(=O)CSc2nnc(-c3ccccc3Br)o2)cc1C	4	-17%	-6%	3.6	3.7%	-11	-22%
CN(C)c1nc(Cl)cc(N2CCOCC2)n1	5	18%	12%	1.2	-1.1%	6	11%
CN(C)C(=S)Oc1ccccc1-c1ccccc1OC(=S)N(C)C	0	1%	29%	1.2	-0.9%	-4	.
CC(=O)c1c(N2CCOCC2)nc2ccc(Br)cc2c1-c1ccccc1	-5	-11%	-16%	7.1	.	3	-1%[15.4 µM]

Quoted from the listing:
Result of Cc1cc(S(=O)(=O)Nc2ccc(C(=O)NCC3(N(C)C)CCCCC3)cc2)ccc1F in ClpP mod: -1.1%
Result of O=C(NC1CC1)C1=C[C@H](C2CCCCC2)C[C@H](OCc2ccc(CO)cc2)O1 in CtBP-E1A inh: -2

The list goes on.
SMILES	CtBP-E1A inh	gsp antag	Sfp PPTase inh	Menin MLL FP FL	ClpP mod	TRPV1 PAM	gsp agonist
CC(C)Cn1c(-c2csc(C(C)C)c2)n[nH]c1=S	0	-8%	-14%	-9.6	.	6	?
COc1ccc(NC(=O)CN(C)C(=O)CSc2ccc(Br)cc2)cc1	.	3%	.	.	0.6%	-10	0%
COC(=O)C(C)n1cnc2c(nnn2-c2ccc(OC)cc2)c1=O (centres undefined)	-4	9%	15%	1.7	-5.3%	8	-11%
COc1ccc(/C=C2\OC(=S)N(C)C2=O)cc1	4	-2%	?	2.7	-7.1%	23	-46%[inhibitor]
Cc1c(-c2ccccc2)nc2ccccc2c1C(=O)OCC(=O)Nc1ncc(C(F)(F)F)cc1Cl	-3	-12%	-27%	13	-15%	-3	13%
Cc1ccc(NC(=O)CCN2C(=O)c3ccccc3C2=O)cc1	-20	-8%	13%	0.8	-7.1%	16	-1%[15.4 µM]
COc1ccccc1OCCCCOc1ccccc1F	-1	-13%	7%	5.5	-2.6%	10	-7%
Cc1nnc(NC(=O)CSC2CCCCC2)s1	5	5%	-2%	3.1	-1.0%	2	-14%
CCN(CC)S(=O)(=O)c1ccc(NC(=O)C(C)N(c2ccccc2)S(C)(=O)=O)cc1 (centres undefined)	0	-1%	27%	1.7	1.2%	-12	-2%
CCOc1ccccc1N(C(=O)Nc1ccc(Cl)cc1)C1=NC(C)CS1 (centres undefined)	.	12%	14%	-4.3	-0.2%	8	-42%

Bioassay records deposited in PubChem BioAssay by National Center for Advancing Translational Sciences (NCATS).
